TRPML1 ag: qHTS for Agonists of the Human Mucolipin Transient Receptor Potential 1 (TRPML1) | activation, % (concentration not given with the values) | TRPML1-expressing cells, Ca2+ dye fluorescence, FDSS; host cell line not named in the record; reference of the full effect not given here | Mucolipin-1 (Homo sapiens), Q9GZU1 | hit rate 0.12% among 410,000; in the data active = activation above about 50%; inconclusive = about 30% to 50%; inactive = below about 30%; further: 0% is about no effect; the text of the record puts the active cut at 80%
Target sequence (Q9GZU1 whole entry, looked up): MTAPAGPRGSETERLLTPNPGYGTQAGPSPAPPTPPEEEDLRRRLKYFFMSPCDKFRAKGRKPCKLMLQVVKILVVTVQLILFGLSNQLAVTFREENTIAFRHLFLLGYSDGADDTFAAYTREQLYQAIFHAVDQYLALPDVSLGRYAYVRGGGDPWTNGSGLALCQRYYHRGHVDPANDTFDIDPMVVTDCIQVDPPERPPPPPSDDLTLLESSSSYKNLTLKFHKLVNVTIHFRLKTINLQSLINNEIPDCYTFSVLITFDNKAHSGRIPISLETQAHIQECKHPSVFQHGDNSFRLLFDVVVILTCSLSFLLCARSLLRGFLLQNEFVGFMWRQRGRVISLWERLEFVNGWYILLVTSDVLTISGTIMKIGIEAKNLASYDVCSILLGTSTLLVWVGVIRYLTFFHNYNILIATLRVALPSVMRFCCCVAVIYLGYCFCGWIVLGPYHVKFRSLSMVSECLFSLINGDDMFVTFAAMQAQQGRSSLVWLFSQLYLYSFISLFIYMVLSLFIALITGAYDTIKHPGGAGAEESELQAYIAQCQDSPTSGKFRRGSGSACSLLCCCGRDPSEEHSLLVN
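In this qHTS format, compounds were pin-transferred onto Ca8-dye-loaded TRPML1-DL cells induced with Tet overnight, and intracellular Ca2+ fluorescence was recorded kinetically for 110 s after a 10 s baseline. A subsequent 4uM final 54-4 (EC80) addition followed by a second 110 s read served as the antagonist phase.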
TRPML1 blocker: qHTS for Inhibitors of the Human Mucolipin Transient Receptor Potential 1 (TRPML1); Mucolipin-1 (Homo sapiens), Q9GZU1; TRPML1-inducible cells, Ca2+ dye fluorescence, FDSS; hits give low values; inhibition of EC80 agonist-evoked calcium signal; activity change, negative = inhibition, % (test concentration not listed); hit rate 0.02% among 390,000; in the data active means activity change below about -50%; inconclusive means about -30% to -50%; inactive means above about -30%;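 further: stimulus is agonist 54-4 at its EC80 concentration; on the % scale 0 is the no-effect control and ±100 the full control effect; compound concentration not given in the record; the text of the record puts the active cut at -80%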
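Calcium fluorescence in TRPML1-DL cells induced overnight with Tet: a 110 s read after compound pin addition, then a 110 s antagonist read after challenge with 54-4 at 4 uM final (EC80).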
Numbers without * were called inactive; u = inconclusive.

smiles	TRPML1 ag	TRPML1 blocker
O=C(Cn1c(=O)n(Cc2nc(-c3ccccc3)no2)c(=O)c2ccccc21)Nc1cccc(C(F)(F)F)c1	0.4	-8.8
Cc1ccc(NC(=O)CN(C)S(=O)(=O)c2ccc3nc(C)sc3c2)c(C)c1	0.4	3.6
Cc1ccc(S(=O)(=O)c2nnn3c2nc(N2CCN(c4ccc(F)cc4)CC2)c2cc(Cl)ccc23)cc1C	-0.6	19.6
Cc1ccc2cccc(NC(=O)c3cccc4c(Br)cccc34)c2n1	1.1	8.0
Cc1ccc2c(c1)N(C(=O)N1CCC(C(=O)NCc3cccs3)CC1)CC(C)O2 (stereo not given)	-0.7	-2.3
COc1ccc2c(c1)c(=O)c(C(=O)c1ccccc1)cn2CC(=O)Nc1ccc2c(c1)OCO2	-0.2	-10.3
COc1ccccc1N1CCN(C(=O)c2cc3c(=O)oc4ccc(C)cc4c3s2)CC1	-0.2	5.5
O=C(Nc1cc(Cl)cc(Cl)c1)c1cc(S(=O)(=O)NC2CCCC2)ccc1F	2.8	20.3
Cc1ccc(CNC(=O)CCCn2c(=O)c3ccccc3n(Cc3ccccc3C)c2=O)cc1	2.2	22.1
CC(=O)Nc1ccn(C2OC(C(COC(C)=O)NC(=O)C(COCc3ccccc3)NC(=O)OC(C)(C)C)C(OC(C)=O)C2OC(C)=O)c(=O)n1 (stereo not given)	0.7	-6.0
CCOc1ccc(NC(=O)CN2C(=O)C(c3ccc(Cl)cc3)=NC2(C)C)cc1	0.4	2.9
Cc1ccc(Cn2c(C)c3cnn(CC(=O)NCCc4ccc(Cl)cc4)c(=O)c3c2C)cc1	0.7	72.2
CCC(C)NC(=O)c1ccccc1NC(=O)C1CCN(S(=O)(=O)Cc2ccccc2)CC1 (stereo not given)	-1.1	15.0
COc1cc2c(cc1OC)C(COc1ccc(F)cc1)N(C(=O)c1cccc(F)c1)CC2 (stereo not given)	1.6	-1.2
CCN1CCC(N(Cc2ccc(F)cc2)C(=O)Nc2cc(C)ccc2C)CC1	-1.1	1.9
Cc1nc2ccccc2n1CCc1nc2c3ccccc3nc(SCC(=O)Nc3ccc(Br)cc3F)n2n1	0.2	13.2
COc1cc2cc(CNc3ccc(C)cc3)c(=O)n(CC(=O)Nc3ccc(C(C)C)cc3)c2cc1OC	9.3	-4.8
COc1ccc(OC)c(NC(=O)c2nc(SCc3ccc(F)cc3)ncc2Cl)c1	0.1	-6.5
COc1ccc(CC(=O)NCCc2csc(-c3ccc(C(F)(F)F)cc3)n2)cc1	2.5	12.1
Cc1ccc(/C=C/c2onc(C)c2S(=O)(=O)N2CCC(C(=O)Nc3ccccc3C(F)(F)F)CC2)cc1	0.0	-15.5
COc1cc2c(cc1OC)n(Cc1cccc(C(F)(F)F)c1)c(=O)n1nc(-c3ccccc3)nc21	1.1	6.9
CCCN(CCC)CCCNC(=O)c1sc2nc3n(c(=O)c2c1C)CCC3	-0.1	-5.1
COc1ccc(CNC(=O)c2cnc(N3CCCC3)nc2C)cc1	1.4	-3.9
CC(C)NC(=O)Cn1ccc2cc(S(=O)(=O)N3CCCCCC3)ccc21	0.1	-1.3
CCOc1cc(C(=O)Nc2cccc(-c3nc4ccccc4o3)c2)cc(OCC)c1OCC	-0.7	-2.2
COc1ccc(CNC(=O)Cn2nnc(-c3ccccc3F)n2)cc1	-0.2	4.4
CCOc1ccc(NC(=O)CSc2nnc(CNC(=O)C34CC5CC(CC(C5)C3)C4)n2CC)cc1	-0.7	4.6
CCOC(=O)c1[nH]c(C)c(C(=O)NCc2cccc(OC)c2)c1C	0.2	19.9
CCN1c2ccccc2-c2nc(SCC(=O)Nc3cc(C)c(Cl)cc3OC)ncc2S1(=O)=O	0.8	19.3
COc1cccc(N2CCN(C(=O)c3cnn(C(C)(C)C)c3C3CCN(C(=O)OC(C)(C)C)CC3)CC2)c1	-0.7	-1.8
O=C(c1cc(-c2ccc(Cl)cc2)on1)N(Cc1ccc(F)cc1)Cc1ccco1	4.8	61.0
COc1ccccc1-c1cc(C(=O)Nc2sc3c(c2C#N)CCCC3)no1	-0.4	20.3
CCOc1ccc(S(=O)(=O)N(CC(=O)NCCSCc2ccccc2)c2ccccc2)cc1	-0.5	9.3
CCc1cccc(NC(=O)c2cc3c(=O)[nH]c4ccccc4c3n2C)c1	0.8	13.9
CCOc1ccc(C2C(C(=O)Nc3ccc(OC)cc3)=C(C)Nc3nc(CCCO)nn32)cc1 (stereo not given)	-0.3	47.1
COc1ccc(N2CCN(C(=O)c3oc4ccccc4c3NC(=O)c3ccccc3OC)CC2)cc1	11.2	u

Random excerpt: 5 records from the list, in no set order.
smiles	TRPML1 ag	TRPML1 blocker
O=C(c1cc(-c2ccc(Cl)cc2)on1)N(Cc1ccc(F)cc1)Cc1ccco1	4.8	61.0
CCOc1cc(C(=O)Nc2cccc(-c3nc4ccccc4o3)c2)cc(OCC)c1OCC	-0.7	-2.2
COc1ccc(N2CCN(C(=O)c3oc4ccccc4c3NC(=O)c3ccccc3OC)CC2)cc1	11.2	u
COc1ccc(CNC(=O)Cn2nnc(-c3ccccc3F)n2)cc1	-0.2	4.4
CCOC(=O)c1[nH]c(C)c(C(=O)NCc2cccc(OC)c2)c1C	0.2	19.9

(list continues)
smiles	TRPML1 ag	TRPML1 blocker
COc1cc(NC(=O)CCc2c(C)nn(-c3ccc4nncn4n3)c2C)cc(OC)c1OC	1.5	3.6
CCOc1ccc(CCNC(=O)CCc2c(C)nc3c(-c4ccccc4)c(C)nn3c2C)cc1OCC	-0.3	20.3
CCCOc1ccc(-c2nn(-c3ccccc3)cc2C2NC(=O)NC(C)=C2C(=O)OC)cc1 (stereo not given)	2.2	6.3
CC(=O)c1ccc(NC(=O)CN(C)S(=O)(=O)c2cnc[nH]2)cc1	1.7	-10.8
O=C(CN1C(=O)C2CCCCN2c2ccc(C(=O)N3CCCC3)cc21)NCc1cccc(Cl)c1 (stereo not given)	0.9	-6.7
CC(=O)Nc1ccc(NC(=O)CSc2nc3ccccc3nc2N2CCOCC2)cc1	0.3	-10.2
CCOC(=O)Cn1c(-c2cccs2)cc2cc(Cl)ccc21	2.0	15.5
CCOc1ccc(-n2c(=O)c3c(C)c(C)sc3n(Cc3c(F)cccc3Cl)c2=O)cc1	1.8	12.3
Cc1ccc2c(c1Br)C(O)(CC(=O)c1ccc(F)cc1)C(=O)N2 (stereo not given)	0.9	1.4
O=C(CSc1nc2ccccc2n1Cc1cccc(F)c1)NCc1ccccc1	-0.7	59.7
Cc1c2cnn(CC(=O)N3CCCCC3)c(=O)c2c(C)n1Cc1ccc(Cl)cc1	0.1	16.3
COc1ccc(NC(=O)c2cc(=O)c3cc(C)cc(C)c3o2)cc1	-0.5	5.7

(more compounds)
canonical_smiles	TRPML1 ag	TRPML1 blocker
COc1ccc(-n2c(/C=C/c3cccc(C(F)(F)F)c3)nc3ccccc3c2=O)cc1Cl	1.5	23.9
CC1CCc2nc3ncn(Cc4ccc(Cl)cc4)c(=O)c3cc2C1 (stereo not given)	2.2	14.0
COc1ccc(NCc2cc3cc4c(cc3n(CC(=O)Nc3cccc(F)c3)c2=O)OCO4)cc1	13.4	-0.8
CCc1ccc(CNC(=O)C2CCCN(c3nnc(C)c4c(C)n(-c5ccc(OC)cc5)nc34)C2)cc1 (stereo not given)	2.0	51.6
COc1ccc(-c2nc(C)c(CCNC(=O)C(=O)Nc3ccccc3F)s2)cc1	1.1	-26.7
CSc1ccc(CNC(=O)C2CCN(c3nc4ccccc4nc3C(F)(F)F)CC2)cc1	-0.9	1.9
O=C(NCCc1ccc(Cl)cc1)c1cnc2sc(N3CCCC3)nn2c1=O	0.3	-4.9
CC(=O)N1CCc2c(sc3c2c(=O)n(-c2cccc(Cl)c2)c(=O)n3Cc2ccc(F)cc2Cl)C1	0.1	3.9
Cc1ccc(-n2nc(CO)c(C(=O)NCCC(C)C)n2)cc1C	1.1	28.1
CCc1ccc(NS(=O)(=O)c2ccc(-c3cc(C)no3)cc2)cc1	23.6	-6.3
CCC(C(=O)Nc1ccc(C(C)=O)cc1)n1c(C)c2cnn(-c3ccccc3)c(=O)c2c1C (stereo not given)	8.0	19.7
COc1ccccc1N1CCN(Cc2cc(COC(C)C)c3cccnc3c2O)CC1	2.7	-14.9
CCc1ccc(NC(=O)CC2C(=O)N(c3ccccc3)C(=O)N2C(C)C)cc1 (stereo not given)	0.7	23.4
COc1cccc(NC(=O)Cn2cnc3c(nc4n3CCCCC4)c2=O)c1	-0.6	0.1
Cc1nc2c(c(C)nn2-c2ccccc2)c(C)c1CCC(=O)NCCc1ccc(Cl)cc1	1.4	-2.6
Cc1oc2c(c(C)cc3oc(=O)c(CC(=O)NCCc4ccccc4)c(C)c32)c1C	1.6	32.9
CCCn1c(=N)c(C(=O)NCc2cccnc2)cc2c(=O)n3cc(C)ccc3nc21	3.7	3.8
CCOC(=O)Cn1c(=O)c2c(nc3n2CCN3c2ccc(CC)cc2)n(C)c1=O	2.4	-25.1
Cc1[nH]c2ccccc2c1C(c1ccccc1)c1ccc(Cl)s1 (stereo not given)	-0.5	-5.3
COc1ccc(N2CCN(S(=O)(=O)c3csc(C(N)=O)c3)CC2)cc1	0.0	12.9
CCCSc1nc2c(c(=O)[nH]1)C(c1ccc(F)cc1F)CC(=O)N2 (stereo not given)	2.8	-0.3
O=C(Nc1ccccc1F)c1nc(SCc2ccc(F)cc2)ncc1Cl	1.0	25.4
CC(C)c1ccc(S(=O)(=O)c2nnn3c2nc(N2CCN(C)CC2)c2sccc23)cc1	-0.4	5.8
O=C(NCCc1ccccc1)c1ccc2nc(CCc3ccccc3)oc2c1	0.9	-12.3
O=C(CSc1nc2c([nH]c3ccccc32)c(=O)n1-c1ccc(F)cc1)N1CCCCC1	0.0	30.6
COc1ccc(-c2coc3c2c(C)cc2oc(=O)c(CC(=O)O)c(C)c23)cc1	0.8	14.5
Cc1ccc2c(=O)cc(C(=O)Nc3ccc(S(=O)(=O)N4CCCCCC4)cc3)oc2c1C	0.8	-5.0
COc1ccccc1N1CCN(C(=O)c2cc3c(-c4ccccc4F)nn(C)c3s2)CC1	-0.5	-2.9
COc1cccc(-c2csc(-c3c(N)c(C(=O)c4ccccc4)n4ccccc34)n2)c1	1.5	13.0
CC1CN(c2ccc(Cl)cc2)c2nc3c(c(=O)n(CC(=O)O)c(=O)n3C)n2C1 (stereo not given)	-0.3	-3.2
CCCN(CCC)C(=O)Cn1c(=O)n(-c2cccc(OC)c2)c(=O)c2c(C)c(C(=O)N(C)C)sc21	0.6	12.8
O=C(c1ccccc1F)N1CCC(c2nc3c(nnn3Cc3cccc(F)c3)c(=O)[nH]2)CC1	-0.9	-10.6
CCCNC(=O)c1c(C)nn(-c2cccc(C)c2)c1-n1cccc1	2.5	9.4
Cc1ccc(-c2nc(CS(=O)CC(=O)NCc3ccccc3Cl)c(C)o2)cc1 (stereo not given)	0.6	-2.8
CCc1ccccc1N(C)C(=O)C1CCCN(c2ncnc3onc(-c4ccc(F)cc4)c23)C1 (stereo not given)	0.8	27.2
CCc1ccc(NC(=O)CCc2c(C)nn(-c3ccc(N4CCCC4)nn3)c2C)cc1	0.9	-11.3
Cc1cc(C)c(NC(=O)Cn2c(=O)nc(-c3ccccc3)c3cc(Cl)ccc32)c(C)c1	1.2	1.4
COc1ccc(CCNC(=O)c2c(C)nn(-c3ccc(F)cc3)c2-n2cccc2)cc1OC	5.5	-1.7
Cc1cc(C)cc(OCC(=O)N2CCC(c3nc4ccccc4s3)CC2)c1	0.0	-4.3
O=S(=O)(c1ccccc1)c1nc(-c2ccccc2F)oc1N1CCOCC1	-1.2	25.2
CCC(=O)N1c2ccc(S(=O)(=O)N3CCCCCC3)cc2CC1C (stereo not given)	0.8	8.6
COc1ccc(C2C=C3CNS(=O)(=O)C3CC2OC(=O)c2ccc(C(F)(F)F)cc2)cc1 (stereo not given)	3.3	24.9
CC(NC(=O)c1ccc2c(c1)CCN2S(=O)(=O)c1ccccc1)c1ccccc1 (stereo not given)	2.9	18.5
CCCc1cc(N2CCN(c3cccc(C)c3C)CC2)n2cnnc2n1	1.5	8.1
Cn1cnc(S(=O)(=O)N2CCCC(C(=O)Nc3cccc(C#N)c3)C2)c1 (stereo not given)	1.5	-12.1
Cc1ccc(OCc2nc(-c3ccc(C(=O)NCCc4ccc(S(N)(=O)=O)cc4)cc3)oc2C)cc1	0.2	-2.0
CC(=O)N1CCc2c(sc3c2c(=O)n(-c2ccccc2)c(=O)n3CC(=O)Nc2cccc(C)c2)C1	-0.7	11.5
COc1ccccc1NC(=O)CSc1nc2nccnc2c(=O)n1CCc1c[nH]c2ccccc12	1.7	2.4
COc1cc(C(CCN2CCCC(C)C2)c2c(OC)cc(OC)c3c(C)cc(=O)oc23)cc(OC)c1OC (stereo not given)	0.0	13.0

Compound activity (PubChem)

These rows are one share of the data (hit frequency here may not be typical).
